TRPML1 blocker: qHTS for Inhibitors of the Human Mucolipin Transient Receptor Potential 1 (TRPML1); TRPML1-inducible cells, Ca2+ dye fluorescence, FDSS; hits give low values; inhibition of EC80 agonist-evoked calcium signal; hit rate 0.02% among 390,000; AID 624415, 2012; activity change, negative = inhibition, % (test concentration not listed); in the data active means activity change below about -50%; inconclusive means about -30% to -50%; inactive means above about -30%;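 also: stimulus is agonist 54-4 at its EC80 concentration; % is scaled to controls: 0 for no effect and ±100 for the full control effect; compound concentration not given in the record; the text of the record puts the active cut at -80%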
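Tet-induced TRPML1-DL cells loaded with Ca8 no-wash calcium dye were read kinetically on FDSS. Compound addition was followed by EC80 agonist 54-4 (4 uM final); inhibition was read over 110 s.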
Six1-Eya2 blk: qHTS Assay for Inhibitors of the Six1/Eya2 Interaction; activity change, % (concentration not given with the values); Homeobox protein SIX1 (Homo sapiens) + Protein phosphatase EYA2 (Homo sapiens), …; hit rate 0.56% among 360,000; AlphaScreen GST-Six1/His-Eya2 binding, biochemical; hits give low values; control for the full effect not named in the record; in the data active = activity change below about -65%; inconclusive = about -30% to -65%; inactive = above about -30%; also: % is scaled to controls: 0 for no effect and ±100 for the full control effect
Target sequence (O00167 whole entry, looked up): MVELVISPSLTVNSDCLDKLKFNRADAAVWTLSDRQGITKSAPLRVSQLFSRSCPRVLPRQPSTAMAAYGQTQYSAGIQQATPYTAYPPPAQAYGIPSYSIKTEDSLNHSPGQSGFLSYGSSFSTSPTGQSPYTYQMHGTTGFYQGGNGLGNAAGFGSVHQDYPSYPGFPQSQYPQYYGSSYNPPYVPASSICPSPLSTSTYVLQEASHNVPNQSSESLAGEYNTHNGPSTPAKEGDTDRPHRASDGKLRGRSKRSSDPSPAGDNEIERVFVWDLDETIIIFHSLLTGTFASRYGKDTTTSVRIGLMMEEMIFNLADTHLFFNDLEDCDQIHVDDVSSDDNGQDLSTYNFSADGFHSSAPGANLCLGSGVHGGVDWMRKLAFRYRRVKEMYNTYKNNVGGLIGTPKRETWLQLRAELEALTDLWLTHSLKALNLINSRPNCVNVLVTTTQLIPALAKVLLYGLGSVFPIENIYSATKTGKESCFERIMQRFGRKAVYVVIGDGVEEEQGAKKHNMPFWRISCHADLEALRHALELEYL
Target sequence (Q15475 whole entry, looked up): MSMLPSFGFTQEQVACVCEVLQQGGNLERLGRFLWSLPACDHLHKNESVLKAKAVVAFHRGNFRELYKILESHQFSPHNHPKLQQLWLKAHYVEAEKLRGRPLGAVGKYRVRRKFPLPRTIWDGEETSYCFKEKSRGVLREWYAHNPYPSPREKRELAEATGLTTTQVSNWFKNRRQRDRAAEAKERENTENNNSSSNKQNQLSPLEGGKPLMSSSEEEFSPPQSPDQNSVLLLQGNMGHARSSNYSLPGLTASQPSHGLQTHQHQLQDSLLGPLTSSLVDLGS
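AlphaScreen luminescence read after one hour at 37 °C in darkness. Pin-transferred compounds met GST-Six1 and His-Eya2 protein (5X stock 250 nM/500 nM) plus glutathione donor and Ni-chelate acceptor beads (5X, 50 ug/mL).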
D2 ag: Beta-Arrestin HTS for Positive Allosteric Modulators of the Human D2 Dopamine Receptor: Agonists. activation, % (test concentration not listed). D(2) dopamine receptor (Homo sapiens), P14416. AID 624465, 2012. hit rate 0.084% among 360,000. DiscoveRx PathHunter D2 beta-arrestin, luminescence, 90 min; 100% = 57 uM dopamine signal; in the data active = activation above about 40%; inconclusive = about 15% to 40%; inactive = below about 15%; also: compound concentration not given in the record; the text of the record calls up to 30% inactive
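DiscoveRx PathHunter D2 beta-arrestin cells (2,100/well) attached overnight, then compound-stimulated 90 min at 37 C in HBSS/10 mM HEPES/0.1% Tween-20 buffer; beta-galactosidase complementation read by luminescence after 1 h at ambient temperature. Dopamine 57 uM final (EC100) as control.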
CtBP-E1A inh: qHTS Assay for Inhibitors of the CtBP/E1A Interaction; CtBP / adenovirus E1A interaction (AlphaScreen); AlphaScreen GST-E1A/His-CtBP binding, 1536-well; hits give low values; control for the full effect not named in the record; activity change, % (concentration not given with the values); hit rate 0.49% among 340,000; in the data active means activity change below about -65%; inconclusive means about -30% to -65%; inactive means above about -30%; also: % is scaled to controls: 0 for no effect and ±100 for the full control effect
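In 5 uL wells, 23 nL compound meets equimolar GST-E1A and His-CtBP (5X stock 125 nM each) for 2 h, 37 °C. Beads (5X, 50 ug/mL) then 1 h, 37 °C, dark.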
PINK1 expr mod: A Quantitative High throughput Screen to Identify Chemical Modulators of PINK1 Expression | PINK1 immunofluorescence, high-content cytometry, 24 h | Potency, µM (series often up to 76.6 µM), for the others: top-dose activation (PINK1 increase), usual class: activators | hit rate 0.2% among 410,000; active = well fitted activation curve with a large enough effect; inconclusive = small, poorly fitted or top-dose-only effect; inactive = flat fitted curve, though single readings scatter; cell line not stated here;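 also: potency is read from the fitted curve at half-maximal effect; % of control where 0% means no effect; nearly all actives have a fitted effect of over 65% in size; a mitochondrial uncoupler was the plate control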
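A stable cell line was treated with compounds at 5 concentrations for 24 hours, with CCCP as control. PINK1 levels and mitochondrial localization were measured by immunofluorescence with mitochondrial, cell and nuclear markers after fixation, read by laser-scanning cytometry.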
TRPML1 ag: qHTS for Agonists of the Human Mucolipin Transient Receptor Potential 1 (TRPML1); Mucolipin-1 (Homo sapiens), Q9GZU1; AID 624414, 2012; activation, % (no concentration beside the values); hit rate 0.12% among 410,000; TRPML1-expressing cells, Ca2+ dye fluorescence, FDSS; host cell line not named in the record; reference of the full effect not given here; in the data active = activation above about 50%; inconclusive = about 30% to 50%; inactive = below about 30%; also: 0% is about no effect; the text of the record puts the active cut at 80%
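Calcium fluorescence on an FDSS kinetic reader gave the read-out. Tet-induced TRPML1-DL cells were plated overnight, dye-loaded (Ca8 with quencher, 45-90 min, room temperature, dark), then read 110 s after compound addition, and again 110 s after 4uM final 54-4 (EC80).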
Starred values were filed as active, the others as inactive; ? = inconclusive; / = no result given; & = joins results of further samples; [ ] = another dose, or the depositor's remark. Outcome played no part in choosing rows (roughly 1% active in at least one column).

SMILES	TRPML1 blocker	Six1-Eya2 blk	D2 ag	CtBP-E1A inh	PINK1 expr mod	TRPML1 ag
CCC(C(=O)NCc1ccccc1OC)n1nc(C)n2c(cc3occc32)c1=O (configuration not stated)	12&-3	2	-2.0	3	1.2%&1.1%	-0.2&0.3
COC(=O)c1ccccc1CC1SC(N)=NC1=O (configuration not stated)	25	-6	-4.1	-11	-0.1%	-0.2
CSC(=Nc1ccc(Cl)cc1)N[n+]1ccccc1	10	3	-11	18	-1.1%	-1.3
Cc1ccc2nc(C)cc(C(=O)N3CCCC(N4CCN(c5ccccc5C)CC4)C3)c2c1 (configuration not stated)	-4	-2	-4.4	1	1.7%	0.0
COCCC(=O)N1CCC(Oc2ccc(C(=O)NC3Cc4ccccc4C3)cc2)CC1	1	1	4.8	1	-0.8%	-0.7
Cc1nc2ccc(Cl)cc2c(-c2ccccc2Cl)c1CC(=O)O	-10	3	-0.6	-9	-0.2%	0.2
CC(C)(C)NC(=O)CSCc1ccc(Br)cc1	?	15	1.1	28	-2.9%	1.2
CCc1ccc(OCC(=O)N(Cc2ccc(C(C)C)cc2)C2CCS(=O)(=O)C2)cc1 (configuration not stated)	-2	/	/	/	-1.3%	2.1
N#CCCN(C(=O)CSc1n[nH]c(=O)[nH]c1=O)c1ccccc1	17	6	-5.5	3	0.6%	-0.5
COC(=O)c1sccc1NC(=O)C1CC2CCC1C2 (configuration not stated)	-20	23	-0.4	-2	-2.6%	1.4
Nc1c(C(=O)Nc2cccc(F)c2)c2ccccn2c1C(=O)c1ccccc1	13	/	/	/	2.0%	1.2
CNS(=O)(=O)c1cc(C(=O)NCc2ccco2)ccc1Cl	-3	-69*	-2.3	21	-1.0%	0.8
Cc1ccc2oc(C(=O)N(Cc3ccc(N(C)C)cc3)C3CCS(=O)(=O)C3)c(C)c2c1 (configuration not stated)	-2	?	-3.1	?	-1.9%	0.5
CC(NC(=S)Nc1cccc(F)c1)C(c1cccs1)N1CCOCC1 (configuration not stated)	23	3	0.5	-2	-0.2%	2.1
Cc1cc(O)c(-c2n[nH]c3c2C(c2cccc(O)c2)N(Cc2cccnc2)C3=O)cc1Cl (configuration not stated)	-4	-19	2.9	-15	8.8%	1.6
Cc1c(C(=O)NN2CCOCC2)cccc1[N+](=O)[O-]	17	-10	-4.6	-2	1.5%	-0.5
Cc1cccc(N(C)S(=O)(=O)c2ccc3c(c2)NC(=O)CC(=O)N3)c1	27&-2	7	3.7	/	-0.5%&0.4%	0.1&-0.3
O=C(COC(=O)c1cc(Cl)ccc1[N+](=O)[O-])NCc1ccc(Cl)cc1Cl	-17	-22	4.6	-7	7.0%	2.4
CN1CCN(C2CN(Cc3ccccc3)S(=O)(=O)C2)CC1 (configuration not stated)	-12	9	-5.1	7	2.4%	-0.4
COc1ccc(-c2csc(/C(C#N)=C(\O)CSc3nccn3C)n2)cc1OC	-6	-19	-2.2	-6	-1.5%	0.4
Fc1ccccc1NC(=S)NCCc1ccc(Cl)cc1	-2	2	0.0	8	3.9%	-0.7
OCCNc1nc(-c2ccccc2)c2ccccc2n1	3	2	-2.4	5	1.3%	-0.5
O=C1c2cccc(OCC(=O)N3CCCc4ccccc43)c2CCN1Cc1ccc(F)cc1	-1	0	-0.9	1	-1.8%	1.2
CCOc1ccc(C(=O)NCC(=O)Nc2ccc(N3CCOCC3)cc2)cc1OCC	7	2	-15	-2	-1.3%	1.3
CCOC(=O)CC(N)c1ccc2c(c1)OCO2 (configuration not stated)	-18	25	-2.1	44	/	-0.3
Cc1ccc(NS(=O)(=O)c2ccc(-n3cccn3)cc2)cc1C	-10	4	8.5	4	6.4%	3.9
CCN(CC)S(=O)(=O)c1cccc(C(=O)NC2=NCCS2)c1	-10	2	1.9	2	3.3%	-0.5
CCN(CC)c1ccc(/C=N/N=C(c2ccccc2)c2ccccc2)c(O)c1	-12	-27	-5.1	?	13%	27
Cc1cc(C)n(-c2ncccc2[N+](=O)[O-])n1	15	4	-2.8	2	2.2%	-0.2
CCCCC(O)(CCN1CCOCC1)c1ccc(Cl)cc1 (configuration not stated)	13	6	-2.5	2	5.3%[38.3 µM]	0.6
O=[N+]([O-])c1ccccc1/C=C/CN1CCN(Cc2ccc3c(c2)OCO3)CC1	/	0	2.8	/	0.5%	/
COc1cccc(CNC(=O)COC(=O)c2cc(Br)c(Br)s2)c1	3	-1	-1.0	6	4.6%	1.8
COc1cc(NC(=O)c2ccc(C)c(Cl)c2)ccc1NC(=O)c1cc2ccccc2o1	39	/	/	/	1.3%	0.2
Cc1ccc(Sc2nc(C)c([N+](=O)[O-])c(C)c2C#N)cc1	-16	-14	-0.4	-4	1.2%	2.3
C[C@@H]1ON(C2CCCCC2)[C@H]2c3nc4ccccc4n3C[C@@H]12	2	2	-2.4	3	0.3%	-0.6
CCN(C(=O)Nc1cccc2ccccc12)c1ccccc1	-3	-5	-11	-14	1.3%	-0.2

Structures above with a furan ring, fused or not (4):
SMILES	TRPML1 blocker	Six1-Eya2 blk	D2 ag	CtBP-E1A inh	PINK1 expr mod	TRPML1 ag
CCC(C(=O)NCc1ccccc1OC)n1nc(C)n2c(cc3occc32)c1=O (configuration not stated)	12&-3	2	-2.0	3	1.2%&1.1%	-0.2&0.3
CNS(=O)(=O)c1cc(C(=O)NCc2ccco2)ccc1Cl	-3	-69*	-2.3	21	-1.0%	0.8
Cc1ccc2oc(C(=O)N(Cc3ccc(N(C)C)cc3)C3CCS(=O)(=O)C3)c(C)c2c1 (configuration not stated)	-2	?	-3.1	?	-1.9%	0.5
COc1cc(NC(=O)c2ccc(C)c(Cl)c2)ccc1NC(=O)c1cc2ccccc2o1	39	/	/	/	1.3%	0.2

Next section.
SMILES	TRPML1 blocker	Six1-Eya2 blk	D2 ag	CtBP-E1A inh	PINK1 expr mod	TRPML1 ag
CC1CN(S(=O)(=O)c2ccccc2)CN1C(=O)N1CCOCC1 (configuration not stated)	-17	8	-3.0	3	5.1%	0.2
Cc1ccc(S(=O)(=O)Cn2nnnc2C(CC(C)C)N2CCN(c3ccccc3)CC2)cc1 (configuration not stated)	15	2	-1.2	-4	-0.9%	0.6
Cc1ccccc1S(=O)(=O)N1CC(C(=O)O)=CC[C@H]1c1ccc(Cl)cc1	-1	4	-0.7	3	-1.6%	-0.8
COc1cc2ccccc2cc1C(=O)Nc1cccc(-c2nc3cc(C)ccc3o2)c1C	-1	/	/	/	1.2%	-0.2
CCN(C(=O)c1cc2c(=O)n3cccc(C)c3nc2s1)c1ccc(C)c(C)c1	69	/	/	/	1.6%	4.7
O=C(CSc1nnc(-c2ccccc2)o1)N1CCCCC1	22	0	4.6	2	-0.8%	-0.3
Cc1ccc(NC(=O)COc2ccccc2C(=O)Nc2ccccc2)cc1Cl	-4	5	-0.5	-13	0.0%	1.1
CC(=O)Cc1nsc(NC(=O)c2csc3c2CCCC3)n1	-3	-2	-3.3	-4	0.5%	1.2
COCCn1c(C)cc(/C=C2/SC(=O)N(CC(=O)N3CCCC3)C2=O)c1C	36	-3	-3.0	-10	-0.7%	0.4
COc1ccc(N2CC(C(=O)Nc3ccccc3C(=O)NCc3ccco3)CC2=O)cc1 (configuration not stated)	-8	-2	-4.4	1	-1.3%	0.0
CCN(CC(=O)Nc1ccc(NC(C)=O)cc1)C(=O)c1cc2c(s1)CCCC2	-4	4	0.6	2	-0.1%	0.5
COC(=O)c1sccc1S(=O)(=O)N1CCN(c2cccc(C)c2)C(C)C1 (configuration not stated)	-13	/	/	/	1.4%	0.5

An excerpt of these results, comma-delimited.
Structure,TRPML1 blocker,Six1-Eya2 blk,D2 ag,CtBP-E1A inh,PINK1 expr mod,TRPML1 ag
CC(=O)Cc1nsc(NC(=O)c2csc3c2CCCC3)n1,-3,-2,-3.3,-4,0.5%,1.2
COCCn1c(C)cc(/C=C2/SC(=O)N(CC(=O)N3CCCC3)C2=O)c1C,36,-3,-3.0,-10,-0.7%,0.4
COc1ccc(N2CC(C(=O)Nc3ccccc3C(=O)NCc3ccco3)CC2=O)cc1 (configuration not stated),-8,-2,-4.4,1,-1.3%,0.0

(next part)
SMILES	TRPML1 blocker	Six1-Eya2 blk	D2 ag	CtBP-E1A inh	PINK1 expr mod	TRPML1 ag
CCc1nnc(NC(=O)C(=O)NCCOC(=O)c2ccccc2)s1	9	-14	-1.8	11	/	-0.4
COc1cc(C)ccc1Oc1ncnc(N)c1[N+](=O)[O-]	8	-1	-2.4	-2	-3.0%	2.1
CCN(CC)C1CCS(=O)(=O)C1 (configuration not stated)	-13	-2	-2.0	-3	-1.7%	-0.2
Cc1nn(C)cc1S(=O)(=O)N1CCN(c2ccccc2)CC1	4	3	5.5	9	-0.2%	1.2
COc1ccc2[nH]c3c(c2c1)CCN1C(=O)C(CC(=O)NCC24CC5CC(CC(C5)C2)C4)C[C@H](C(=O)N2CCOCC2)[C@@]31CCC1CCCC1 (some centres not stated)	-2	-1	-0.7	5	2.3%	-0.4
CCC(C)(C)n1nnnc1CN1CCN(c2nc3cc(OC)ccc3cc2C#N)CC1	23	5	0.1	6	1.2%	-0.9
Cc1ccc(CS(=O)(=O)Cc2ccc(C(=O)NCCCN3CCOCC3)o2)cc1	2	-2	-1.9	7	-1.0%[38.3 µM]	-0.3
COc1cc(C(=O)Nc2nc3ccc(S(C)(=O)=O)cc3s2)cc(OC)c1C	11	5	2.7	-15	4.6%	2.4
Cc1c(Cl)cccc1Nc1sc(C(=O)c2ccccc2)c(N)c1S(=O)(=O)c1ccccc1	-6	/	/	/	7.2%	0.5
CCc1ccccc1NC(=O)COCc1cc(-c2ccco2)on1	17	/	/	/	0.1%	0.8
CNc1nc(SC(C)C(=O)Nc2ccc(Cl)c(Cl)c2)nc(N2CCOCC2)n1 (configuration not stated)	24	-3	-1.4	1	12%	-0.6
O=C1C=C(c2ccc(-c3ccccc3)cc2)C[C@@H](c2ccc(Cl)cc2)C1	0	-3	0.7	4	0.4%	0.3
CCNC(=S)NNC(=O)c1ccc(OC(F)F)cc1	4	5	-2.0	2	-4.3%[38.3 µM]	0.0
N/C(=N\OC(=O)c1cccc(Br)c1)c1ccc([N+](=O)[O-])cc1	12	-10	51*	/	7.7%	-0.6
CCCc1c(C(=O)N/N=C/c2ccccc2OCc2ccc(F)cc2)nnn1-c1nonc1N	1	10	0.6	3	4.9%	0.2
Cc1cc(Cc2cc(C)c(O)c(CO)c2)cc(CO)c1O	2	6	-1.1	4	-0.5%	0.6
CCCN1C(=O)c2cc(C(=O)NCCc3cccc(C)c3)ccc2C1O (configuration not stated)	-11	5	-6.9	-3	0.3%	-0.4

Source: PubChem BioAssay
